Screening data as filed in PubChem.
INS promoter inh: inhibitors of insulin promoter-driven GFP, primary screen, imaging, TRM-6 cells (human fetal islet line), eGFP reporter, cell count; inhibition, % at 2 µM; actives 0.9% (n = 130,000); AID 1273, 2008; reporter expression induced with tamoxifen;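 active = inhibition above the mean plus 3 SD, with well images judged a real hit on visual review, cut at about 60% in these data, passing the limit was not always enough; inconclusive = inhibition over the cutoff but images rejected on review; inactive = inhibition not above the cutoff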
GALR2 ag: GALR2 receptor agonists, primary screen, cell-based | activation, %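 (tested at 5 µM)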 | actives 0.48% (n = 140,000) | AID 803, 2007 | GALR2-expressing cells, agonist activation read-out | Galanin receptor type 2 (Homo sapiens), O43603;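 active = above mean plus 3 SD of all compounds, about 5% in these data, not always enough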;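 note: 0% = vehicle buffer wells and 100% = reference agonist at full effect; tested in CHO reporter cells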
PKD1 inh: inhibitors of human PKD1 kinase, biochemical, fluorescence polarization | PKD1 kinase fluorescence polarization assay | actives 0.056% (n = 200,000) | inhibition, %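 (about 10 µM by stock and volumes)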;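 active = inhibition of 50% or more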;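 note: controls were vehicle for no effect and a reference inhibitor for full effect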
Target sequence (Q15139 whole entry, looked up): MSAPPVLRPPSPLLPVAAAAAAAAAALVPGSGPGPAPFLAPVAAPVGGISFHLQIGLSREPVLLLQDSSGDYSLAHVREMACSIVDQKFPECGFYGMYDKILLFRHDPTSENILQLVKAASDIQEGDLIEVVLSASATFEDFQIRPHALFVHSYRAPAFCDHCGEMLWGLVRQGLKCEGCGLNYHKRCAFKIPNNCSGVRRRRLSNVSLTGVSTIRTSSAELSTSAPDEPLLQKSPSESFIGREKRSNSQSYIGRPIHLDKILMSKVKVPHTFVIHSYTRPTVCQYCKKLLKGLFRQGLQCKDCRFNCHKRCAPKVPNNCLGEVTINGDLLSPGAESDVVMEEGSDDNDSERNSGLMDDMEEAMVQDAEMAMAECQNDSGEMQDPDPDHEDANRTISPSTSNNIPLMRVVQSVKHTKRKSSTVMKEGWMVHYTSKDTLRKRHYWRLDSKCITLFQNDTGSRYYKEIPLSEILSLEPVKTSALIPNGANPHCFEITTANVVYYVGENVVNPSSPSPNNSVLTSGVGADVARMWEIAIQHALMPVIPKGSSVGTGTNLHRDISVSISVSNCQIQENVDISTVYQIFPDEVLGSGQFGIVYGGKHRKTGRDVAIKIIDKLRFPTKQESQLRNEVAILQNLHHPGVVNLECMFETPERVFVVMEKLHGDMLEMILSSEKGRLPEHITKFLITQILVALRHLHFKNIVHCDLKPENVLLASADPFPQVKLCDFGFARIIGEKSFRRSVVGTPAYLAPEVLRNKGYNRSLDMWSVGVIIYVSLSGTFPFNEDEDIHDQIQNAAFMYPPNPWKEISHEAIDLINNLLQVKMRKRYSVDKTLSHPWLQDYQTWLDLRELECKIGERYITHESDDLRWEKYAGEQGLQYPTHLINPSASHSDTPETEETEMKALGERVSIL
HSV replic up: enhancers of HSV replication in host cells, fold increase, host cell viability. HSV replication augmentation in cells. maximum fold increase. actives 0.005% (n = 220,000);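 active = peak rise of 1.5-fold or more in the series; inconclusive = self-fluorescent or not available for retest; tested in PC3 cells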;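 note: first round at 10 µM; read as green reporter fluorescence; hits show the peak of a series up to 25 µM; 1 = signal of infected wells without compound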
RGS16-Gao: modulators of RGS16 binding to Galphao, primary screen, biochemical, human proteins, multiplexed bead flow cytometry. Regulator of G-protein signaling 16 (Homo sapiens) + Guanine nucleotide-binding protein …. bead-based flow cytometry RGS16-Galphao binding, fluorescence; actives lie on both sides. binding response (% of control), % at 10 µM. actives 0.38% (n = 220,000). AID 1441, 2008;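 active = below 25% or above 175%, edge rows of some plates excepted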;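 note: Galphao activated by GDP with aluminum fluoride before binding; 100% = wells without compound and 0% = beads without RGS; some results beyond the cut were filed as inactive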
INS promoter inh cell count: further read-out of INS promoter inh, marked with its call; normalized cell count, %; measured here: cell count, toxicity; reference of the scale not given here;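 cells exposed to compound for 48 h; stained nuclei by imaging scaled within each plate; lower means fewer cells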
HSV replic up primary fold: second read-out of HSV replic up, no call of its own (marks repeat the call); fold increase; compound at 10 µM; measured here: primary screen fold increase 10 uM; tested in PC3 cells;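 GFP signal in the first replicate; 1 = infected wells without compound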
* marks the source's active call; other numbers are inactive results; i = inactive; u = inconclusive; x = no result given.

Order of values – INS promoter inh | INS promoter inh cell count | GALR2 ag | PKD1 inh | HSV replic up | HSV replic up primary fold | RGS16-Gao
O=C(NCc1cccnc1)C1COc2ccccc2O1 (stereo not given)
 : 14 | 264 | -1.9 | -4 | x | x | 107
CC(=O)c1c(C)[nH]c(C(=O)OCC(=O)Nc2sc3c(c2C#N)CCC(C)C3)c1C (stereo not given)
 : x | x | x | x | i | 0.9 | 92
Cc1cccc(-n2c(Cc3ccccc3)nnc2SCC(=O)N2CCOCC2)c1
 : x | x | -1.3 | -8 | i | 1 | 100
O=C(N/N=C/c1cccs1)c1n[nH]c2c1CCCC2
 : x | x | x | x | i | 0.52 | 110
Cc1nn(-c2cccc3cccnc23)c(=O)c2ccccc12
 : -28 | 76 | -4.9 | -5 | i | 0.93 | 97
N#C/C(=C/c1ccc(N2CCCCCC2)o1)c1ccc(F)cc1
 : -45 | 61 | -1.8 | -5 | i | 0.73 | 93
Cn1c(SCC(=O)NC(=O)Nc2ccccc2)nnc1-c1ccncc1
 : x | x | x | x | i | 1 | 105
CCOC(=O)c1[nH]c(C)c(C(=O)N2CCN(C(=O)c3ccco3)CC2)c1C
 : 20 | 131 | -0.8 | -3 | i | 1 | 99
COc1cccc(OCCSc2nc(C)c(Cc3ccccc3)c(=O)[nH]2)c1
 : 47 | 127 | x | -3 | i | 0.94 | 96
CCOC(=O)c1cc2c(C(F)(F)F)cc(-c3cccnc3)nc2o1
 : -45 | 80 | -3.2 | -3 | i | 0.98 | 100
Cc1ccc(Nc2nnc(-c3ccncc3)s2)c(Br)c1
 : x | x | 0.5 | 6 | i | 1 | 100
Cc1cc(C(=O)NCc2ccccc2Cl)n(-c2ccccc2)n1
 : x | x | x | x | i | 0.92 | 113
Cc1cc(O)c(-c2ccno2)cc1Cl
 : -56 | 47 | -0.3 | 2 | i | 0.94 | 85
COCCN1C=C(C(=O)OC)C(c2ccccc2Cl)C(C(=O)OC)=C1
 : -67 | 100 | x | -1 | i | 1 | 100
COc1ccc2o/c(=N\O)c(C(=O)Nc3ccccc3OC)cc2c1
 : 0 | 206 | -3.2 | 6 | i | 1.1 | 105
CN(C)/C=C/C1=C([N+](=O)[O-])C(c2cccc([N+](=O)[O-])c2)NC(=O)N1 (stereo not given)
 : x | x | x | x | i | 1.1 | 93
COc1ccc(C2=CC(c3cccc(OC)c3)n3nnnc3N2)cc1 (stereo not given)
 : x | x | -0.5 | 1 | u | x | 90
Cn1c(SCC(=O)C(C)(C)C)nnc1-c1ccccn1
 : -24 | 73 | -1.1 | 3 | i | 0.83 | 101
Cc1ccc(NC(=O)C2CC(=O)N/C(=N/N=C/c3ccco3)S2)cc1 (stereo not given)
 : x | x | -1.5 | -1 | i | 1 | 105
COc1cc(CN2CCC(CO)(CCOc3ccccc3)CC2)cc(OC)c1
 : x | x | x | x | i | 0.82 | 103
Nc1nc(F)cc(NCc2ccccc2)n1
 : -114 | 54 | x | 0 | i | 0.98 | 102
Brc1cccc(CNCc2cccs2)c1
 : 8 | 37 | -0.4 | 1 | x | x | 105
COc1ccc(-n2c(Cc3cccn3C)nnc2SCC(=O)N2CCCc3ccccc32)cc1
 : 40 | 116 | -0.3 | 7 | i | 0.79 | 99
O=C(O)c1ccccc1SCC(=O)N1CCCCC1
 : -20 | 42 | 0.2 | -2 | i | 1 | 59
CCCOC(=O)Oc1ccc2c(=O)c(Oc3cc(C)cc(C)c3)coc2c1
 : 3 | 90 | -2.3 | 7 | i | 1 | 136
CCOC(=O)CN(C(=O)CSc1nnc(-c2ccc(OC)c(OC)c2)o1)c1ccccc1
 : x | x | -2.6 | -5 | i | 0.97 | 105
Cc1cccc(NC(=O)CSc2nnc(Cn3nnc(-c4ccccc4)n3)n2-c2ccccc2)c1
 : 3 | 77 | -0.2 | 1 | i | 0.81 | 98
CCOC(=O)c1cc(=O)n(-c2ccc(Cl)cc2C)[nH]1
 : -6 | 124 | -1.1 | -6 | i | 1.1 | 106
Cc1c(Cl)cccc1N=c1c([N+](=O)[O-])nn(-c2ccccc2)n1O
 : x | x | -1.9 | -2 | i | 0.78 | 115
CC(=O)Oc1ccc(-n2c(=O)c3ccccc3c3ccccc3c2=O)cc1
 : x | x | x | -9 | i | 0.71 | 125

Additional records follow.
Order of values – INS promoter inh | INS promoter inh cell count | GALR2 ag | PKD1 inh | HSV replic up | HSV replic up primary fold | RGS16-Gao
O=C(c1cccnc1)N1CCN(C(=O)c2ccccc2F)CC1
 : -14 | 128 | -1.3 | -7 | i | 0.89 | 101
Cc1ccc(Sc2ccc(NC(=O)CCl)cc2)cc1C
 : 19 | 83 | -1.1 | -5 | i | 1 | 72
COc1ccc(S(=O)(=O)N2CCCC(C(=O)Nc3cccc(C(C)=O)c3)C2)cc1 (stereo not given)
 : 6 | 113 | -1.8 | 2 | i | 0.96 | 95
O=[N+]([O-])c1ccc(/C=N/NC(=S)Nc2ccc(Cl)cc2Cl)s1
 : x | x | x | x | i | 1.1 | 91
CCN(CC)S(=O)(=O)c1ccc(Cl)c(NC(=O)COc2ccc(OC)cc2)c1
 : x | x | x | 2 | i | 1 | 105
COCCn1c(SCC(=O)NCC2CCCO2)nc2c(c1=O)SC(C)C2 (stereo not given)
 : x | x | -1.8 | -16 | i | 1.1 | 98
NC(=O)C1CCN(C(=O)c2cnn(-c3ccccc3)c2NC(=O)c2ccco2)CC1
 : x | x | -0.1 | 9 | i | 0.95 | 102
Cc1ccc(OCCCC(=O)Nc2ccc(N3CCOCC3)cc2)cc1
 : -51 | 81 | -4.4 | 7 | i | 0.98 | 105
Cc1ccc(S(=O)(=O)NCc2ccco2)c(C)c1C
 : 25 | 87 | -1.3 | -4 | i | 0.91 | 101
Cc1cc(C)c(N=Cc2c(O)n(-c3nccs3)c(=O)c3ccccc23)c(C)c1
 : x | x | 0.5 | -4 | i | 0.9 | 98
CN(CC(=O)NCc1ccc(F)cc1)S(=O)(=O)c1cccc2nsnc12
 : -57 | 105 | -1.5 | 1 | i | 0.86 | 97
O=C(C1CCCCC1)N1CCCC(c2nc(-c3ccc(F)cc3)no2)C1 (stereo not given)
 : x | x | 0.0 | 5 | i | 0.98 | 101
CC(=O)N(C)c1ccc(NC(=O)C(Sc2ccccc2)c2ccccc2)cc1 (stereo not given)
 : x | x | x | -4 | i | 0.85 | 97
COC(=O)c1cn(Cc2ccccc2C)nn1
 : x | x | -1.1 | 0 | i | 1.1 | 106
Cc1ccc(-n2cc(C(=O)c3ccccc3O)cn2)cc1
 : 32 | 77 | -0.8 | 8 | x | x | 102
CC(=O)c1c(O)cc(C)n(Nc2nc(C)cc(C)n2)c1=O
 : -8 | 129 | -0.7 | -6 | i | 0.95 | 109
O=C(Nc1nccs1)c1sc2ccccc2c1Cl
 : -5 | 101 | -1.2 | 2 | i | 1 | 100
CCOCCCNCc1cccc(OCc2ccc(F)cc2)c1
 : -54 | 97 | 0.3 | -17 | i | 0.9 | 112
CC(C)CCNC(=O)C(=O)NC1CCCC1
 : 39 | 142 | -0.8 | 3 | i | 0.95 | 112
Cc1nnc(SCC(=O)N(C)c2ccccc2)n1Cc1ccccc1
 : x | x | x | -2 | i | 0.6 | 89
Cn1c(Cn2nnc3ccccc32)nnc1SCC(=O)Nc1ccc2c(c1)OCO2
 : x | x | -0.7 | -5 | i | 1 | 92
O=C(CSc1nc2ccccc2n1Cc1ccc(Cl)cc1)N/N=C/c1ccc(C(=O)O)cc1
 : x | x | x | 4 | i | 0.9 | 96
O=C(O)CCS(=O)(=O)Cc1cccc(Cl)c1
 : x | x | -0.2 | 10 | i | 0.97 | 107
Cc1c(NC(=O)c2cccs2)c(=O)n(-c2ccccc2)n1C
 : x | x | x | 2 | i | 0.9 | 107
Cc1occc1C(=O)NCCCCNC(=O)c1ccoc1C
 : 64 | 126 | -4.2 | -2 | i | 0.91 | 62
C/C(=N\N=C1\NC(=O)C(CC(=O)O)S1)c1ccccn1 (stereo not given)
 : x | x | x | x | i | 0.99 | 96
CCCC(=O)c1c(NCCO)cc(C)oc1=O
 : 14 | 113 | x | 2 | i | 0.92 | 98
Cc1ncc([N+](=O)[O-])n1CC(=O)NC1CCCC1
 : 21 | 98 | 0.9 | -7 | i | 0.92 | 99
O=C(/C=C/c1cccc(OCc2ccccc2)c1)c1cccnc1
 : x | x | -1.6 | -10 | i | 0.77 | 99
O=S(=O)(c1cccc(-c2nnc(SC(F)F)n2-c2ccccc2)c1)N1CCCCC1
 : x | x | 0.7 | -11 | i | 1 | 102

One compound at a time, from the list above. Values in the order: INS promoter inh | INS promoter inh cell count | GALR2 ag | PKD1 inh | HSV replic up | HSV replic up primary fold | RGS16-Gao
CCOCCCNCc1cccc(OCc2ccc(F)cc2)c1 across the screens: -54 | 97 | 0.3 | -17 | i | 0.9 | 112
Brc1cccc(CNCc2cccs2)c1 across the screens: 8 | 37 | -0.4 | 1 | x | x | 105
Cc1ccc(OCCCC(=O)Nc2ccc(N3CCOCC3)cc2)cc1 across the screens: -51 | 81 | -4.4 | 7 | i | 0.98 | 105

Continuation.
Order of values – INS promoter inh | INS promoter inh cell count | GALR2 ag | PKD1 inh | HSV replic up | HSV replic up primary fold | RGS16-Gao
Cc1nc(CC(=O)c2c(C)cc(O)cc2O)cs1
 : x | x | -3.4 | -5 | i | 0.82 | 100
CCCOc1ccc(C2C(=O)N(C3CCCCC3)CC(=O)N2CCCOCC)cc1OC (stereo not given)
 : x | x | -2.1 | 4 | x | x | 95
CC1N=C2c3ccccc3N=C(SCc3cc(=O)n4cc(Cl)ccc4n3)N2C1=O (stereo not given)
 : -18 | 163 | 0.5 | -2 | i | 1.1 | 178
CCN(CC)CCN(Cc1cc2cc(C)cc(C)c2[nH]c1=O)C(=S)NCc1ccco1
 : -100 | 113 | -0.7 | -4 | x | x | 101
S=C1NCN(Cc2ccco2)CN1c1cccc2ccccc12
 : x | x | x | x | i | 1 | 98
CCCc1cc(=O)[nH]c(SCc2cccnc2)n1
 : -342 | 43 | -1.9 | -16 | i | 0.9 | 109
Cc1ccc(S(=O)(=O)N(C(=O)c2ccncc2)c2ccc(OC(=O)c3ccncc3)c3ccccc23)c(C)c1
 : -2 | 84 | -2.7 | 1 | i | 1.3 | 91
COc1cccc(CN2C(=O)N(C(C)C)C(N(O)C(=O)NC(C)C)C2(C)C)c1OC (stereo not given)
 : 3 | 95 | -1.9 | -1 | i | 0.94 | 97
Cc1ccc(N(CC(=O)NCCSc2ccccn2)S(=O)(=O)c2ccc(F)cc2)cc1
 : -171 | 90 | x | -4 | i | 1 | 106
Cn1c(=O)cc(SCC(=O)N2CCCC2)c2ccccc21
 : x | x | -1.1 | -3 | x | x | 94
COCCNC(=O)C1CC2Cn3c(nc4cc(C)c(C)cc43)C2N1C (stereo not given)
 : x | x | x | x | i | 0.48 | 101
Cc1cc(NCCCCO)n2c(nc3ccccc32)c1C#N
 : -105 | 83 | 0.1 | -8 | i | 1.1 | 100
CN(C(=O)C1CCC1C(=O)O)c1nc(-c2ccc(Cl)s2)cs1 (stereo not given)
 : x | x | x | x | i | 0.94 | 95
CCN(Cc1ccccc1)C(c1ccc(C)cc1)c1nnnn1C(C)(C)C (stereo not given)
 : 17 | 69 | -0.8 | 4 | i | 0.97 | 99
CCn1c(SCC(=O)Nc2oc(-c3ccccc3)c(-c3ccccc3)c2C#N)nnc1-c1ccncc1
 : 62 | 31 | 0.1 | -9 | i | 1.1 | 109
NC(=S)N/N=C/c1cccc(/C=N/NC(N)=S)c1
 : x | x | x | x | i | 1.1 | 103
O=C(O/N=C/c1ccc2c(c1)OCO2)c1ccccc1Cl
 : 2 | 124 | -1.9 | -11 | i | 1.1 | 113
O=C(Cc1n[nH]c(=O)[nH]c1=O)N/N=C/c1ccccc1O
 : 12 | 142 | 0.5 | -2 | i | 0.95 | 96
O=C(O)c1cccc(N/C(=N\S(=O)(=O)c2ccccc2)c2ccccc2)c1
 : x | x | x | 6 | i | 1 | 103
CC(=O)Nc1ccc(CN2CCN(C3CCCCC3)C(CCO)C2)cc1 (stereo not given)
 : x | x | x | 5 | i | 0.96 | 113
O=C(N/N=C/C(Br)=C/c1ccccc1)c1n[nH]c2c1CCC2
 : x | x | 0.0 | -4 | i | 0.7 | 98
O=C(CSc1nncn1-c1ccccc1)Nc1cc(Cl)cc(Cl)c1
 : -6 | 148 | -3.3 | 0 | i | 0.84 | 98
